From PubChem BioAssay
RecA splice inh = Mtb RecA intein splicing inhibitors, primary screen, biochemical, fluorescence, HTS; inhibition, %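 (about 9 µM by stock and volumes)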; Protein RecA (Mycobacterium tuberculosis (strain ATCC 25618 / H37Rv)), P9WHJ3; cell-free RecA intein splicing; AID 2221, 2009; 290,000 tested, 0.75% active; in the data active means inhibition above about 30%; inconclusive means no clear call, values can overlap the other calls;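 further: 0% = vehicle wells and 100% = reference inhibitor control wells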
Target sequence (P9WHJ3 whole entry, looked up, canonical isoform): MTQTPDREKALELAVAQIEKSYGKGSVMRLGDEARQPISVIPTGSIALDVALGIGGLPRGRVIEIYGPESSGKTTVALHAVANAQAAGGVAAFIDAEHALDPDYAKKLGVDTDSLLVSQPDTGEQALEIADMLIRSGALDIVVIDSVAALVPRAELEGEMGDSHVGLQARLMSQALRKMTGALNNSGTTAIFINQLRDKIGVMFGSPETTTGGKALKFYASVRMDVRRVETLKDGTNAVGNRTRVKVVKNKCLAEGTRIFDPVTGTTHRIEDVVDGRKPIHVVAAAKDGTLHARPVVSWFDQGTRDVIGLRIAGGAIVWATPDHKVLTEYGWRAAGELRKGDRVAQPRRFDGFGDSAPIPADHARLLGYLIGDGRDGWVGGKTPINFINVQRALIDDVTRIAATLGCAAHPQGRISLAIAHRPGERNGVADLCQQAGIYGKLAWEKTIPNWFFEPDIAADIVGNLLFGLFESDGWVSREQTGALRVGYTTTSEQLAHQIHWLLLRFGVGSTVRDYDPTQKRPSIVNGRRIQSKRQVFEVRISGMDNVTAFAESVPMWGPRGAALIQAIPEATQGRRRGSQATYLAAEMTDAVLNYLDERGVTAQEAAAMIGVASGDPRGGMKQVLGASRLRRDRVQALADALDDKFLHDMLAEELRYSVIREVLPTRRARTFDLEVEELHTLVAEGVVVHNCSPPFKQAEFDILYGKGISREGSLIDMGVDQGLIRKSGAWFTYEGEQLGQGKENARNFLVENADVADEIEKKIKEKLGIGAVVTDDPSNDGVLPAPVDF
Mtb H37Rv = M. tuberculosis H37Rv growth inhibitors, H37Rv strain (AID 1626); M. tuberculosis H37Rv growth inhibition; higher % means a stronger effect; inhibition, % at 10 µM; hits with a dose series show IC50 in µM; 220,000 tested, 0.95% active;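 active means confirmed in a dose series; inconclusive means inhibition above 80% but not taken into the dose series; inactive means below 80% or under 30% at every dose of the series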;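 further: bacteria incubated seven days before Alamar blue readout; 0% = bacteria only wells and 100% = bacteria with antibiotic wells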
Mtb betalactam = beta-lactam sensitization of Mtb H37Rv, H37Rv. M. tuberculosis H37Rv growth with meropenem, percent inhibition; hits of this screen are not shown here. inhibition, % at 25 µM. 330,000 tested, 0.27% active. AID 434955, 2010;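 active means about 74% or more and at least 40 points above the plate without the antibiotic, then above 30% in a dose series; inconclusive means first-round hits that could not be retested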;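 further: growth measured after seven days incubation then overnight dye step; 0% = bacteria only wells and 100% = bacteria with antibiotic; twin plates without the antibiotic show which effects depend on it; some results filed as inactive read as strong as hits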
Arbovirus anti = antivirals against arbovirus infection, primary screen, cell-based, full library, 10K replicate subset; inhibition, % at 10 µM; arbovirus infection cell-based antiviral screen; 200,000 tested, 0.37% active; AID 1251, 2008;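 active means inhibition from about 30%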;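 further: bluetongue infection of BSR cells; cell survival read as ATP light after 72 h; 0% = infected wells without compound and 100% = uninfected wells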
YopH PTP inh = YopH tyrosine phosphatase inhibitors, primary screen, biochemical, fluorescence Ex485/Em525; YopH tyrosine phosphatase [Yersinia enterocolitica]; AID 898, 2007; 140,000 tested, 0.16% active; inhibition, %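 (about 10 µM by stock and volumes)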;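 active means inhibition of 50% or more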;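 further: controls were vehicle for no effect and minimum signal wells for full effect; inactives centre near -20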
Arbovirus anti repeat = also measured in Arbovirus anti; calls as there; inhibition, %; measured here: 10K subset replicate screen; many hits read low in the repeat;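 first of two repeat runs on a subset; 0% = infected and 100% = uninfected wells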
An asterisk follows results filed as active; ? = inconclusive; / = no result given. An excerpt, so the mix of outcomes need not match the whole.

SMILES	RecA splice inh	Mtb H37Rv	Mtb betalactam	Arbovirus anti	YopH PTP inh	others
CC(C)c1ccc(O)c(NC(=S)NC(=O)c2ccc3c(c2)OCO3)c1	3.2	/	94	/	/
CC(C)(C)c1cc(OS(C)(=O)=O)ccc1O	4.9	-3%	5	-4	/
O=C(CCC(=O)N1CCOCC1)Nc1ccc(Cl)c(Cl)c1	1.8	/	63	/	/
CC(NC(=O)/C=C/c1ccccc1)c1ccccc1 (stereo not drawn)	-0.3	-10%	9	-12	/
O=C(Nc1nnc(COc2ccc(Br)cc2)s1)c1ccco1	1.6	/	5	/	/
CSc1nccc(N2CCN(c3ccc(F)cc3)CC2)n1	3.6	10%	6	19	-1
CCOc1ccc(CC2S/C(=N/c3ccccn3)NC2=O)cc1 (stereo not drawn)	/	27%	0	-4	-1
CCOC(=O)N1CCN(c2ccc3nnnn3n2)CC1	-4.4	-6%	-1	7	-13	Arbovirus anti repeat=1
COc1ccc(CCNC(=O)COC(=O)Cc2ccccc2)cc1	0.8	-2%	9	4	-6
O=C(CCCn1c(SCC(=O)NC2CCCCC2)nc2ccccc2c1=O)NCC1CCCO1 (stereo not drawn)	1.1	-4%	-1	-17	-48
C=CCOC(=O)C(=O)/C=C/c1csc2ccccc12	5.8	-11%	-1	3	/
O=C(O)COc1ccccc1/C=N/NC(=O)CSc1nnc(SCc2ccc(Cl)cc2)s1	5.2	6%	13	/	/
O=C(NCc1cccnc1)c1cc(Sc2ccccc2Cl)nc2ccccc12	6.2	16%	3	-14	-21
COc1ccc(-c2nnn(CC(=O)N(C3CCCC3)C(C)C(=O)NC3CCCC3)n2)cc1OC (stereo not drawn)	-1.5	-6%	3	2	-27
CC(=O)c1ccc(-n2c(-c3cc(-c4ccco4)[nH]n3)n[nH]c2=S)cc1	7.9	-6%	-4	2	-16
Cc1cc(C(=O)CSC(C)c2nc3ccccc3c(=O)[nH]2)c(C)n1C (stereo not drawn)	0.7	/	-9	-2	-43
COc1ccc(CCn2c(O)c(C=Nc3ccc(F)cc3)c(=O)[nH]c2=O)cc1OC	-1.6	-6%	-3	/	/
O=C(CCCC1=NS(=O)(=O)c2ccccc2N1)Nc1ccccc1	-2.0	/	-8	/	/
Cc1ccc(NC(=O)Nc2ccccc2)c(Br)c1	0.7	7%	0	-5	-32
COc1ccc2nc(NC(=O)c3ccccc3-c3ccccc3C(=O)O)sc2c1	1.4	14%	6	3	/

Sorted by number of heavy atoms (ascending): some entries from above
SMILES	RecA splice inh	Mtb H37Rv	Mtb betalactam	Arbovirus anti	YopH PTP inh	others
CSc1nccc(N2CCN(c3ccc(F)cc3)CC2)n1	3.6	10%	6	19	-1
O=C(Nc1nnc(COc2ccc(Br)cc2)s1)c1ccco1	1.6	/	5	/	/
CCOc1ccc(CC2S/C(=N/c3ccccn3)NC2=O)cc1 (stereo not drawn)	/	27%	0	-4	-1
Cc1cc(C(=O)CSC(C)c2nc3ccccc3c(=O)[nH]2)c(C)n1C (stereo not drawn)	0.7	/	-9	-2	-43
O=C(NCc1cccnc1)c1cc(Sc2ccccc2Cl)nc2ccccc12	6.2	16%	3	-14	-21
COc1ccc2nc(NC(=O)c3ccccc3-c3ccccc3C(=O)O)sc2c1	1.4	14%	6	3	/

The list continues:
SMILES	RecA splice inh	Mtb H37Rv	Mtb betalactam	Arbovirus anti	YopH PTP inh	others
C/C(=N\N1CCCCC1)c1c(O)[nH]c(=O)[nH]c1=O	-4.7	/	-1	-3	-22
O=C(CC1c2ccccc2Oc2ccccc21)Nc1ccccc1F	-5.5	3%	7	4	-25
O=C(CCCn1c(=S)[nH]c2cc3c(cc2c1=O)OCO3)N1CCN(C2CCCCC2)CC1	-2.1	-4%	-2	2	-19
Cn1c(SCC(=O)Nc2ccccc2F)nc2c(c1=O)SCC2	-2.3	/	-3	/	/
O=C(Nc1ccc(F)cc1)C1CCCN(S(=O)(=O)c2ccc3[nH]c(=O)ccc3c2)C1 (stereo not drawn)	-0.3	/	?	/	/
Cc1c(CC(=O)N2CCN(C(=O)C3COc4ccccc4O3)CC2)c(=O)oc2cc(O)cc(O)c12 (stereo not drawn)	-106	/	-2	/	/
COc1cccc(C2C(C#N)=C(N)Oc3c2oc(CO)cc3=O)c1 (stereo not drawn)	-2.3	-2%	-9	-6	1
O=C(NCCc1ccccc1F)c1cccc2cccnc12	-2.2	/	4	/	/
Fc1ccc(-c2ccc(/C=N\n3cnnc3)o2)cc1Cl	3.2	51%	4	1	-29
Cc1oc(-c2ccc(Cl)cc2)nc1CS(=O)CC(=O)NCCCN1CCCC(C)C1 (stereo not drawn)	-0.1	/	-2	/	/
COc1ccc(CCNC(=O)c2cc(-c3ccccc3)on2)cc1OC	-0.3	-4%	9	-12	-2
COCCCNc1nc2nonc2nc1N(C)CC1CCCN1C (stereo not drawn)	7.1	2%	-4	-1	/
COC(=O)C1=C(C)N(CCCC(=O)O)C(=O)NC1c1cccc(Cl)c1Cl (stereo not drawn)	-4.5	-11%	-3	/	/
COc1ccc(-c2cc(C(=O)N3CCN(c4ccccc4)CC3)c3ccccc3n2)cc1	5.0	1%	81	-17	/
CCCCn1nnnc1SCC(=O)N1CCOCC1	-1.9	-14%	-3	6	-1
CCCc1cc(=O)[nH]c(Nc2ccc(N3CCCCC3)cc2)n1	-6.4	-8%	-22	9	-20
COc1ccc(-c2nnc(SCc3ccccc3)n2N)cc1	-0.1	-6%	-4	-9	5
O=C(Nc1cccc(F)c1)C1CCN(S(=O)(=O)c2cnc[nH]2)CC1	-0.5	/	2	/	/
N#Cc1ccsc1NC(=O)COC(=O)c1cc2ccccc2cc1O	-3.0	-2%	4	3	11
O=C(N/N=C/c1cccc2ccccc12)c1cccs1	-5.5	/	4	/	/
Cc1ccc(S(=O)(=O)Cn2nnnc2C(c2ccc(F)cc2)N2CCC(C(N)=O)CC2)cc1 (stereo not drawn)	-0.1	1%	-5	-2	-39
Cc1nn(-c2cccc(Cl)c2)c2nc(-c3ccncc3)cc(C(=O)N3CCOCC3)c12	/	73%	83	-20	/
Cc1ccc(OCCNC(=O)CCC(=O)N2CCOCC2)cc1	3.3	/	-8	/	/
COc1ccc(-n2nc(C(=O)NCC(=O)Nc3cccc(NC(C)=O)c3)c3ccccc3c2=O)cc1	/	-4%	-6	-2	/
CC(C)NCC(O)COCCOc1ccc(Cl)cc1 (stereo not drawn)	4.2	-5%	0	/	/
CC1(C)Cc2noc(N)c2C(C)(C)N1OC(=O)c1ccccc1	/	3%	-6	0	-34
CCn1c(P(C)(=O)O)nc2cc(NC(=O)c3ccccc3F)ccc21	2.6	-7%	0	19	/
NC(=S)N/N=C/c1ccccc1O	-11	39%	91	/	/
CCN(CC)C(=O)c1sc(NC(=O)c2ccoc2C)c(C(=O)OC)c1C	/	-12%	-14	-1	-17	Arbovirus anti repeat=0
COc1ccc(C(c2sc3nc(C)nn3c2O)N2CCCCC2)cc1 (stereo not drawn)	-1.3	-5%	-9	-1	-9	Arbovirus anti repeat=2
Cc1cc(=O)n(CC(=O)O)c2ccccc12	1.9	-5%	0	5	/
CNC(=O)c1c(Cl)cnn1-c1ccc(C)cc1	-5.2	4%	1	0	/
COc1cccc(C2CC(c3ccccc3OC)n3ncnc3N2)c1 (stereo not drawn)	1.8	1%	?	-2	-21	Arbovirus anti repeat=-13
COc1cc2c(C(=O)N(C)c3ccc(F)cc3)cn(C)c(=O)c2cc1OC	0.7	/	-5	/	/
CN(C(=O)COC(=O)c1ccc[nH]c1=O)C1CCCCC1	-1.3	-1%	4	9	/
CCOC(=O)c1cc2c(ccn2C)n1CC(=O)N1CCN(c2ccccc2OC)CC1	2.0	5%	/	-2	-51
O=C(CN1CCN(c2ccc(O)cc2)CC1)N1CCc2ccccc21	-7.9	/	2	/	/
CCCCNC(=O)CSc1nnc(Cc2ccccc2)n1CC	1.2	-3%	0	-4	-22
CC(C)NC(=S)NCc1cccnc1	-1.8	-15%	-5	1	-17
CCCn1cnc2c(c1=O)c1nc3ccccc3nc1n2Cc1ccccc1OC	-2.0	5%	/	-9	-13
CC1(C)C(=O)C2(CCCC2)C(=O)OC1c1ccco1 (stereo not drawn)	-0.8	3%	2	15	-15
CCOC(=O)N1CCC(NC(=O)CCc2cn(C)c3ccccc23)CC1	0.9	-2%	0	-1	-55
CCOn1c(=O)c(-c2cc(OC)ccc2OC)[n+]([O-])c2ccccc21	0.3	/	-2	/	/
COc1cccc(OCC(O)CNC2CCCC2)c1 (stereo not drawn)	-1.5	/	-2	/	/
CNc1nc(C)c(C(C)(C)C)s1	/	0%	-3	/	/
O=C(c1ccc(-n2cccc2)cc1)N1CCN(Cc2ccccc2)CC1	1.2	-20%	-10	-3	-20
Cc1ccccc1-n1c(C)cc(/C=C2/C(=O)NC(=O)N(Cc3ccco3)C2=O)c1C	2.4	3%	8	8	-6
COc1ccc(/C=C2\CCCC(C(=O)C(F)(F)F)=C2O)cc1OC	/	10%	5	6	/
O=C(Nc1nnc(S(=O)(=O)N2CCCCC2)s1)c1ccccc1Br	-4.1	/	4	/	/
CC12CN3CC(C)(CN(C1)C31CCOCC1)C2=O	0.0	-9%	-7	4	-8
CCn1cc(C(=O)c2ccccc2)c2ccccc21	0.4	7%	90	-2	9
COc1ccc(NS(=O)(=O)c2cccc(C(=O)N/N=C/c3ccc4c(c3)OCCO4)c2)cc1	1.1	-2%	-6	-10	/
Cc1ccc2nc(SCC(=O)Nc3nonc3C)[nH]c2c1	-1.0	/	14	/	/
CC(/C=N/NC(=O)c1n[nH]c2c1CCC2)=C\c1ccccc1	0.2	3%	-8	-27	2
Cc1ccc(C(=O)NC(=S)Nc2cccc(NC(=O)c3ccccc3Cl)c2)cc1[N+](=O)[O-]	1.4	10%	6	-6	-22
COc1ccccc1-c1coc2c(CN3CCCC(C)C3)c(O)ccc2c1=O (stereo not drawn)	-1.3	/	-5	/	/
COc1ccc2ccc(OC)c(/C=N/n3cnnc3)c2c1	-30	/	3	/	/
O=C(NCCO)c1ccc(-c2nnc(N3CCOCC3)c3ccccc23)cc1	4.0	-7%	8	1	-14	Arbovirus anti repeat=5
COc1cccc(C(=O)NCCNC(=O)c2ccco2)c1	-0.6	/	3	/	/
CCOc1ccc(OCc2ccc(C(=O)N(C)c3ccccc3)o2)cc1	5.0	/	-1	/	/

(further entries)
SMILES	RecA splice inh	Mtb H37Rv	Mtb betalactam	Arbovirus anti	YopH PTP inh	others
COCCn1c(SCC(=O)Nc2sccc2C(N)=O)nc2cc(Cl)ccc2c1=O	-0.4	0%	-17	1	16
CN(C)C(=O)c1cn(-c2ccccc2)nc1-c1cc2ccccc2o1	-0.9	-1%	4	-4	/
Cc1ccc(OCC(=O)Nc2ccccc2N2CCCC2)c(C)c1	20	-4%	15	7	/
CCN(CC)Cc1c(O)ccc2c(=O)c(Oc3ccccc3OC)coc12	-12	3%	-3	2	9
CC(C)(C)NC(=O)NC(=O)Cn1cc(C(F)(F)F)ccc1=O	1.4	4%	-10	4	-20
C#CCn1ccc(O)c(Cc2c(F)cccc2Cl)c1=O	0.9	0%	-2	5	/
O=c1cccc2c1c1cc[nH]c3ccc(=O)n2c31	-1.6	/	-7	/	/
N#CCc1ccc(NC(=O)/C=C/c2ccc([N+](=O)[O-])o2)cc1	7.6	<0.39µM*	/	-36	/
O=C(Nc1c2c(nn1-c1ccc(Cl)cc1)CS(=O)(=O)C2)C1CC1	2.2	/	-13	/	/
CCOC(=O)C(=O)Cc1nc2ccccc2s1	-11	2%	7	/	/
COCCN1CCN(C(=O)c2cc(COc3ccc(Cl)cc3OC)on2)CC1	-2.0	/	1	/	/
CNCc1cn2cc(Cl)ccc2n1	-3.1	2%	1	5	-49
CCCNc1c(NS(=O)(=O)c2ccc(C3CCCCC3)cc2)c(=O)oc2ccccc12	2.2	/	0	/	/
CCC(Sc1nc2ccccc2c(=O)n1CC1CCCO1)C(=O)NCc1cccnc1 (stereo not drawn)	-1.2	-5%	-7	-4	-22
C=CCN1C(=O)c2oc3ccccc3c(=O)c2C1c1ccc(O)c(OC)c1 (stereo not drawn)	-3.1	/	-1	3	-34	Arbovirus anti repeat=13
Cc1ccc(C2=NCCNC2=O)c(C)c1	-2.1	-10%	6	-3	-15
Cc1ccccc1C(=O)Nc1ccc2nc3n(c(=O)c2c1)CCCC3	-4.2	/	1	/	/

Reprinted at random: two compounds from above
SMILES	RecA splice inh	Mtb H37Rv	Mtb betalactam	Arbovirus anti	YopH PTP inh	others
Cc1ccccc1C(=O)Nc1ccc2nc3n(c(=O)c2c1)CCCC3	-4.2	/	1	/	/
COCCn1c(SCC(=O)Nc2sccc2C(N)=O)nc2cc(Cl)ccc2c1=O	-0.4	0%	-17	1	16
